Bioassay records as filed in PubChem.
Cruzain noTriton: inhibitors of Trypanosoma cruzi cruzain without detergent. purified cruzain, Z-FR-AMC fluorescence, no detergent. hit rate 2.3% among 200,000. Potency, µM, inactives show max response, negative = inhibition, hits mostly inhibitors;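 also: plate controls were enzyme without inhibitor for no effect and buffer without enzyme for full effect; nearly all actives have a fitted effect of over 40% in size; top concentration of the series not given in the record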
Target sequence (P25779 123-467 limits assumed): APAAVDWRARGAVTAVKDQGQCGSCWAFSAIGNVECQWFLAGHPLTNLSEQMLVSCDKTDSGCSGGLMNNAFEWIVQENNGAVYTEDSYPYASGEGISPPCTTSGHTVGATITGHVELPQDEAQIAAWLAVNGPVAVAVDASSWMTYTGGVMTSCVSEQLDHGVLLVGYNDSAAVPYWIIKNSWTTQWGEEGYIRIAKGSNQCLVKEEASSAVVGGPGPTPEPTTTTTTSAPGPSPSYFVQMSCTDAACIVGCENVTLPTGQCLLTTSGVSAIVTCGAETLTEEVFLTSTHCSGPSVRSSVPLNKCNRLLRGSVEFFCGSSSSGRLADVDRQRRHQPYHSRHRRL
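Detergent-free condition (0.00005% Triton X-100) in acetate buffer pH 5.5 with DTT. 1.5 nM enzyme and compound were pre-mixed 15 min, then 2 uM Z-FR-AMC substrate added; reaction progress from fluorescence change between first and third reads (60 s).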
SARS PLpro yeast: blocks SARS-CoV papain-like protease in a yeast assay | S. cerevisiae expressing SARS-CoV PLpro, growth rescue; control for the full effect not named in the record | AID 485353 | Potency, µM (series often up to 32.9 µM), for the others: top-dose activity, positive = growth rescue | hit rate 0.19% among 330,000; active means well fitted rising curve with a large enough effect; inconclusive means small, poorly fitted or top-dose-only effect; inactive means no such curve, though single readings can be large or run the other way; also: 0% is about no effect; nearly all actives have a fitted effect of over 55% in size; growth read by luminescence after 48 h
Marburg entry inh: inhibitors of Marburg virus binding or cell entry | hit rate 1.8% among 300,000 | Marburg virus pseudotyped entry inhibition, cell reporter; control for the full effect not named in the record; about a third of the inactives were read at about 46 µM | Potency, µM (top dose mostly 37.8 µM), without a hit: at the highest dose activity change, negative = inhibition, usual class: inhibitors; active = well fitted inhibition curve with a large enough effect; inconclusive = small, poorly fitted or top-dose-only effect, or effect the other way; inactive = flat fitted curve, though single readings scatter; tested in HEK293 cells; about a fifth of its hits are not listed in these tables; also: % is scaled to controls: 0 for no effect and ±100 for the full control effect; luciferase read-out
Cruzain Triton: inhibitors of Trypanosoma cruzi cruzain with detergent. hit rate 0.43% among 200,000. purified cruzain, Z-FR-AMC fluorescence, 0.01% Triton. Potency, µM, without a hit: max response, negative = inhibition, hits mostly inhibitors;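 also: plate controls were neutral wells for no effect and buffer without enzyme for full effect; nearly all actives have a fitted effect of over 40% in size; top concentration of the series not given in the record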
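Z-FR-AMC hydrolysis (2 uM substrate) by cruzain (1.5 nM) monitored kinetically at ex 360/em 450 nm after 15 min room-temperature compound exposure; 0.01% Triton X-100, pH 5.5, 5 mM DTT.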
StopGo reporter: FMDV 2A StopGo reporter, luciferase signal | human cells with a luciferase reporter of 2A StopGo recoding; control for the full effect not named in the record | Potency, µM (highest dose often 57.9 µM), inactives show at the top dose signal change, negative = less light | hit rate 1.2% among 410,000 | AID 1159524; active = well fitted falling curve with a large enough effect; inconclusive = small, poorly fitted or top-dose-only effect; inactive = no such curve, though single readings can be large or run the other way; tested in HEK293T cells; also: % is scaled to controls: 0 for no effect and ±100 for the full control effect; nearly all actives have a fitted effect of over 45% in size; luciferase light after 4 h
Lassa entry inh: Lassa virus entry inhibition | Lassa virus pseudotype entry inhibition, cell reporter; control for the full effect not named in the record | Potency, µM (highest dose often 37.9 µM), inactives show at the top dose activity change, negative = inhibition, hits mostly inhibitors | hit rate 1.2% among 300,000 | AID 540256; active means well fitted inhibition curve with a large enough effect; inconclusive means small, poorly fitted or top-dose-only effect, or effect the other way; inactive means flat fitted curve, though single readings scatter; tested in HEK293 cells; also: % is scaled to controls: 0 for no effect and ±100 for the full control effect; nearly all actives have a fitted effect of over 50% in size; luciferase read-out
NS1 inh: blocks influenza NS1 protein function. S. cerevisiae slowed by influenza A NS1, growth recovery by OD600. Potency, µM (top dose mostly 46.1 µM), without a hit: top-dose activity, positive = more growth. hit rate 0.4% among 270,000. AID 2326; active means well fitted rising curve with a large enough effect; inconclusive means small, poorly fitted or top-dose-only effect; inactive means no such curve, though single readings can be large or run the other way; also: nearly all actives have a fitted effect of over 50% in size
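S. cerevisiae expressing influenza A NS1, grown in glucose, washed, then diluted 1:100 into pH 6.0 -URA galactose medium with 23 nl compound. Growth recovery read as OD600; NS1-free strain serves as control.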
RE007 growth inh: less growth of the S. pombe RE007 Vpr strain | S. pombe RE007 Vpr strain, BacTiter-Glo ATP luminescence, 24 h; control for the full effect not named in the record | Potency, µM (doses to about 92.2 µM), without a hit: top-dose activity change, negative = less growth | hit rate 0.21% among 360,000 | AID 651644; active = well fitted falling curve with a large enough effect; inconclusive = small, poorly fitted or top-dose-only effect; inactive = no such curve, though single readings can be large or run the other way;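 also: % is scaled to controls: 0 for no effect and ±100 for the full control effect; nearly all actives have a fitted effect of over 50% in size; the assay follows cell death caused by Vpr and the record does not say whether a fall means rescue or toxicity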
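Fission yeast strain RE007, carrying one chromosomally integrated HIV-1 vpr copy, was seeded at OD 0.01 in PMG+AL medium with 23 nL pinned compound. After 24 h at 30 °C and 99% humidity, viability was read by BacTiter-Glo luminescence.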
Starred values were filed as active, the others as inactive; u = inconclusive; x = no result given; & = joins results of further samples; [ ] = remark or other dose. Unless noted, calls follow the shape of the dose curve; as a rule, active = well fitted curve in the direction sought with a large enough effect; inconclusive = small, poorly fitted or top-dose-only effect, or another doubt; inactive = no such curve, though single readings can be large; an effect the other way counts as inactive or inconclusive. Potency is read from the fitted curve at half-maximal effect.

canonical_smiles	Cruzain noTriton	SARS PLpro yeast	Marburg entry inh	Cruzain Triton	StopGo reporter	Lassa entry inh	NS1 inh	RE007 growth inh
COc1ccc(NC(=O)C(F)(F)F)cc1OC	-5%	-1%	23%	2.9%	-6%	2%	-4%	0%
COC(=O)c1cc(C#N)c(Oc2ccccc2OC)nc1C	1%	-1%	-1%	-0.1%	-18%	-7%	-24%	-3%
CCOc1ccc(NC(=O)COC(=O)CCS(=O)(=O)c2ccc(C)cc2)cc1	x	1%	0%[46.1 µM]	x	-7%	0%	-4%	7%
CNC(=S)/N=C/NOCc1c(Cl)cccc1Cl	x	-2%	u	x	-5%	0%	x	9%
COc1ccc(-c2cc(C(F)(F)F)c(C#N)c(SCC(=O)Nc3ccccc3C#N)n2)cc1	0%	-11%	9%	-7.7%	-27%	-7%	-47%	5%
O=C(c1cc(C2CC2)nc2ccc(Br)cc12)N1N=C(C(F)F)CC1(O)C(F)F (stereo not drawn)	-7%	-34%	u	-12%	u	u	-42%	6%
O=C(/C=C/c1cccc([N+](=O)[O-])c1)OC1CCCCC1=O (stereo not drawn)	x	1%	7%	x	0%	2%	x	-3%
Cc1noc(C(=O)NCC2CCCO2)c1Cl (stereo not drawn)	x	-5%	x	x	-3%	x	0%	-7%
CCn1cc(C(=O)N2CCc3ccccc32)c(=O)c2cc(S(=O)(=O)N3CCCC3)ccc21	8%	16%	u	-4.4%	14%	8%&-18%	-3%	-10%
CCCNC(=O)Cc1c(O)c2ccccc2[nH]c1=O	8%	13%	0%	2.9%	-11%	2%	5%	-2%
COc1ccc(C(C[N+](=O)[O-])C2(c3ccc(OC)c(OC)c3)C(=O)c3ccccc3C2=O)cc1 (stereo not drawn)	5%	-87%	11µM*	-5.1%	-87%	16µM*	-15%	u
CC(C)c1ccc(Nc2nnc(SCC(=O)c3nnc(-c4ccccc4)o3)s2)cc1	13µM*	-24%	u	-25%	31%[activator]	6%	-10%	14%
CCCCCC1CCC(C(=O)O)CC1 (stereo not drawn)	-1%	-9%	5%	-3.8%	-13%	-12%	-190%	u
Cc1ccc(N2C(=O)CCC2=O)c(C)c1	x	x	1%	x	-6%	u	x	-16%
O=C(OCc1c(F)cccc1Cl)c1cnc(Cl)c(Cl)c1	x	-1%	-6%[46.1 µM]	x	-7%	15%[46.1 µM]	3%	-6%
Cc1ccc2c(c1)c1ncn(CCC3=CCCCC3)c(=O)c1n2C	5%	2%	-20%	-13%	34%[activator]	-7%	-3%	-7%
Cc1ccc2c(=O)cc(C(=O)Nc3nc4ccc(Cl)cc4s3)oc2c1C	2%	x	11%[46.1 µM]	-1.7%	-6%	-1%[46.1 µM]	x	x
Cc1ccc(NC(=O)c2cnc(N3CCCCC3)c3ccccc23)c(C)c1	-3%	x	x	1.7%	-23%	-4%[46.1 µM]	x	x
COc1cc(OC)cc(C(=O)NCC(=O)OCC(=O)Nc2ncc(Cl)cc2Cl)c1	x	-6%	-4%[46.1 µM]	x	-9%	-2%	x	3%
CC(C)N1C(=O)CCC1C(=O)NCc1ccc(F)cc1Cl (stereo not drawn)	x	1%	-2%[46.1 µM]	x	4%	-1%[46.1 µM]	-2%	-2%
CCc1nc2sc3c(Cl)ncnc3c2c2c1CCCC2	x	0%	x	x	-25%	x	-1%	5%
CC(C)C(c1nnnn1Cc1ccco1)N1CCN(c2nc3ccccc3s2)CC1 (stereo not drawn)	u	-4%	-9%[46.1 µM]	-4.5%	22µM*	u	-38%	7%
CC(C)Sc1nc2c(c(=O)n(C)c(=O)n2C)n1C	7%	17%	4%	3.1%	x	8%	-5%	-5%
COc1ccc(CCNc2nc3ccc(Cl)cc3n3cnnc23)cc1OC	9%	x	-20%[46.1 µM]	-0.6%	u	18%[46.1 µM]	x	x
CCOc1ccc(Nc2nc(N3CCCC3)nc(N3CCN(c4ccc(OC)cc4)CC3)n2)cc1	x	-3%	4%[46.1 µM]	x	u	1%	x	0%
Cn1c(SCC(=O)c2ccccc2)nnc1-c1ccncc1	x	-1%	0%[46.1 µM]	x	9%	11%	2%	-14%
CCOC(=O)N1CCN(S(=O)(=O)c2cccc3cccnc23)CC1	16%	2%	5%	-0.5%	-20%	-9%	0%	31%
CC1CCCCC12NC(=O)N(CC(=O)NCc1ccc3c(c1)OCO3)C2=O (stereo not drawn)	x	-1%	0%[46.1 µM]	x	8%	6%	x	-22%
O=C(COc1ccccc1[N+](=O)[O-])N/N=C/c1ccc[nH]1	x	-5%	2%	x	26%	10%	-4%	-2%
CCOC(=O)C1CCN(C(=O)CCc2c(C)nc3ncnn3c2C)CC1	-8%	-6%	3%	3.1%	-9%	7%	10%	-12%
Cn1cc(CN2CCC(Oc3ccc(C(=O)N4CCCC4)cc3)CC2)cn1	x	0%	x	x	-7%	x	0%	-5%
CCN1CCCC(OC(=O)Nc2ccccc2)C1 (stereo not drawn)	-1%	-3%	3%[46.1 µM]	2.0%	-10%	0%	-2%	-2%
O=C(CCCCCCC(=O)c1ccccc1)c1ccccc1	x	0%	x	x	-2%	x	-7%	-3%
Cc1cc(C)cc(NS(=O)(=O)c2ccc3c(c2)C(C)(C)C(=O)N3C)c1	x	5%	x	x	55%[activator]	x	8%	-1%
O=S(=O)(c1ccccc1)c1nc(-c2ccccc2Cl)oc1N1CCCCCC1	-15%	x	-25%[46.1 µM]	-12%	6%	-14%[46.1 µM]	x	x
Cc1ccc(Cl)cc1NC(=O)CSc1ccc(C(=O)O)cn1	2%	x	-5%[46.1 µM]	-3.1%	-15%	1%[46.1 µM]	x	x
Cc1ccc(-n2c(C)cc(/C=N/Nc3ccc([N+](=O)[O-])cn3)c2C)c(C)c1	4µM*	-6%	u	-3.8%	-6%	u	u	0%
CCOc1ccc(/C=C2/Sc3ccc(C(=O)N4CCOCC4)cc3N(C)C2=O)cc1OC	x	2%	u	x	-24%	u	-16%	7%
CN1CCn2c1nc(N1CCOCC1)nc2=O	-4%	6%	36%	1.0%	-21%	18%	8%	10%
CCCCn1c(N)c(N(CC(C)C)C(=O)CCNC(=O)c2ccc(Br)cc2)c(=O)[nH]c1=O	x	4%	u	x	-9%	-6%	x	-23%
N#C/C(=C/c1ccco1)C(N)=S	x	-1%	u	x	-4%	-16%[46.1 µM]	10%	-15%
O=C(CNCc1ccc(F)cc1)Nc1ccc(S(=O)(=O)N2CCOCC2)cc1	x	-2%	-18%[46.1 µM]	x	7%	16%[46.1 µM]	17%	6%
COc1ccc(-c2nc(-c3ccccc3)c(-c3ccccc3)[nH]2)cc1Br	3.2µM*	x	u	-0.5%	u	u	x	x
COc1ccc2c(c1)c(=O)c(C(=O)c1ccccc1)cn2CC(=O)Nc1ccc2c(c1)OCCO2	-5%	x	1%[46.1 µM]	-10%	-12%	2%[46.1 µM]	x	x
COc1ccc(/C=C(/NC(=O)/C=C/c2ccccc2)C(=O)N2CCOCC2)cc1	-7%	15%	5%	-8.5%	4%	u	-8%	-4%
Clc1ccccc1-c1nnc(SCc2nc(-c3ccccc3)no2)n1-c1ccccc1	-19%	x	u	-5.6%	25µM*	u	x	x
COc1ccc(N2CCN(C(=O)c3cc4c(=O)n(Cc5cccs5)ccc4nc3C)CC2)cc1	u	x	x	-4.9%	-18%	1%[46.1 µM]	x	x
Cc1c(S(=O)(=O)N(C)C2CCCCC2)c(=O)n(C)c(=O)n1C	x	5%	-4%	x	-24%	7%	x	2%
COc1cc2c(cc1OC)C(c1ccccc1)N(C(=O)c1ccccc1F)CC2 (stereo not drawn)	x	-7%	x	x	-15%	x	2%	1%
CCN(c1cccc(C)c1)S(=O)(=O)c1ccc2[nH]c(=O)c(=O)[nH]c2c1	-3%	3%	-1%	2.1%	-7%	u	-6%	-1%
COc1ccccc1NC(=O)CN1CCN(CC(=O)Nc2ccc3c(c2)OCCO3)CC1	-7%	-1%	u	0.8%	-17%	-13%	-36%	-11%
CC1(C)Cc2nc3sc4c(=O)n(CC(=O)NCc5ccco5)cnc4c3cc2CO1	3%	2%	u	-1.5%	47%[activator]	-6%	3%	6%
O=c1[nH]c(=O)n(Cc2ccccc2)c(O)c1/C=N/NCCO	x	0%	3%	x	-15%	2%	6%	3%
Cc1[nH]c(C)c2c(=O)n(Cc3ccc(Cl)cc3)ncc12	x	1%	x	x	-23%	x	7%	-21%
O=C(O)C1CC(O)CN1S(=O)(=O)c1cccs1 (stereo not drawn)	3%	10%	u	-5.4%	3%	20%	9%	6%
Fc1ccc(Cn2nnc(-c3ccc(Cl)cc3)n2)cc1	x	-4%	5%	x	34%[activator]	x	2%	-7%

The list continues.
canonical_smiles	Cruzain noTriton	SARS PLpro yeast	Marburg entry inh	Cruzain Triton	StopGo reporter	Lassa entry inh	NS1 inh	RE007 growth inh
O=C(c1ccco1)c1cn(CC(=O)N2CCCCCC2)c2ccccc12	x	0%	3%	x	-4%	-1%	-9%	2%
CCn1nc(C)cc1C(=O)N1CCCC(Nc2ccc(F)c(F)c2)C1 (stereo not drawn)	x	7%	-13%	x	-17%	-10%	3%	2%
Cc1ccc(-c2nnn(CC(=O)N(CC(=O)NC3CCCCC3)c3cnc4ccccc4c3)n2)o1	x	x	3%&-6%	x	20%	19%	-33%	8%
COc1ccc(C)cc1N(C(=O)c1snc(C(N)=O)c1N)C(C(=O)NC1CCCCC1)c1ccc(C)o1 (stereo not drawn)	x	-6%	11µM*	x	0%	u	28%	-2%
Cc1cc(N2CCOCC2)nc2ccc(NC(=S)N3CCN(c4ccccc4)CC3)cc12	x	0%	u	x	0%	u	x	-2%
Cc1ccc(N2C(=O)Cc3ccccc3C2=O)cc1	x	-4%	1%[46.1 µM]	x	-25%	-2%	19%	5%
Fc1ccccc1/C=N/NC(=S)Nc1ccc(Cl)cc1Cl	10µM*	5%	u	1.2%	0%	u	15%	2%
COc1cc(N)ccc1NC(=O)c1cc2ccccc2o1	x	-2%	x	x	33%[activator]	x	13%	-11%
